High-throughput results from PubChem BioAssay.
Mtb growth = M. tuberculosis H37Rv growth inhibitors, H37Rv strain (AID 1626). inhibition, % at 10 µM, or IC50 in µM where a hit was titrated. M. tuberculosis H37Rv growth inhibition; higher % means a stronger effect. 220,000 tested, 0.95% active;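 active = confirmed in a dose series; inconclusive = inhibition above 80% but not taken into the dose series; inactive = below 80% or under 30% at every dose of the series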;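 also: bacteria incubated seven days before Alamar blue readout; 0% = bacteria only wells and 100% = bacteria with antibiotic wells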
Mtb betalactam = beta-lactam sensitization of Mtb H37Rv. M. tuberculosis H37Rv growth with meropenem, percent inhibition; hits of this screen are not shown here. 330,000 tested, 0.27% active. inhibition, % at 25 µM;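 active = about 74% or more and at least 40 points above the plate without the antibiotic, then above 30% in a dose series; inconclusive = first-round hits that could not be retested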;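 also: growth measured after seven days incubation then overnight dye step; 0% = bacteria only wells and 100% = bacteria with antibiotic; twin plates without the antibiotic show which effects depend on it; some results filed as inactive read as strong as hits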
Arbovirus anti = blocks arbovirus infection; inhibition, % at 10 µM; AID 1251; 200,000 tested, 0.37% active; arbovirus infection cell-based antiviral screen;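 active = inhibition from about 30%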;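 also: bluetongue infection of BSR cells; cell survival read as ATP light after 72 h; 0% = infected wells without compound and 100% = uninfected wells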
RecA splice inh = blocks M. tuberculosis RecA intein splicing | inhibition, %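 (about 9 µM by stock and volumes)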 | P9WHJ3 | cell-free RecA intein splicing, fluorescence | 290,000 tested, 0.75% active; in the data active = inhibition above about 30%; inconclusive = no clear call, values can overlap the other calls;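 also: 0% = vehicle wells and 100% = reference inhibitor control wells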
Target sequence (P9WHJ3 whole entry, looked up, canonical isoform): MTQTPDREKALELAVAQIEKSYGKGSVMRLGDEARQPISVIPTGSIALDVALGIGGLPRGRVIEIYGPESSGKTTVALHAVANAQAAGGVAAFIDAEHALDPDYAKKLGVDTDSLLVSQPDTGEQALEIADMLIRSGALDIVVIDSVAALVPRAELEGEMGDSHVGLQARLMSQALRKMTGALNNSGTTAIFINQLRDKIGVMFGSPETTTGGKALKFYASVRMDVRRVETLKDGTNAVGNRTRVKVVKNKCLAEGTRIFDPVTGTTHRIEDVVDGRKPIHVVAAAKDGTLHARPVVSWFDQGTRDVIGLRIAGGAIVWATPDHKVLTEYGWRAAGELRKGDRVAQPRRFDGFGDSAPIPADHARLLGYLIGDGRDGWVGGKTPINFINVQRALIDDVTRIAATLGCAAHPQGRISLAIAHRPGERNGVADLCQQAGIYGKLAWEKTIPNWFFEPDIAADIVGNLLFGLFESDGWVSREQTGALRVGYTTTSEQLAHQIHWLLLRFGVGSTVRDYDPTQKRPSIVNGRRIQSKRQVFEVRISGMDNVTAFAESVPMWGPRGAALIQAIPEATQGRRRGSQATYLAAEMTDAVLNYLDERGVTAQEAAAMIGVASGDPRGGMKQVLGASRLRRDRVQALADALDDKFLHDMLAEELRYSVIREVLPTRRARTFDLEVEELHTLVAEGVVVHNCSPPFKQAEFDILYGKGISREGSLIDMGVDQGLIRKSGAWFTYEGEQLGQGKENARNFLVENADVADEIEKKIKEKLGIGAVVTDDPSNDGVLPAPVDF
YopH PTP inh = YopH (Yersinia) phosphatase inhibition; 140,000 tested, 0.16% active; inhibition, %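 (about 10 µM by stock and volumes)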; fluorescence Ex485/Em525; AID 898;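 active = inhibition of 50% or more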;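 also: controls were vehicle for no effect and minimum signal wells for full effect; inactives centre near -20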
Arbovirus anti repeat = recorded beside Arbovirus anti, whose call it bears; inhibition, %; measured here: 10K subset replicate screen; many hits read low in the repeat;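 first of two repeat runs on a subset; 0% = infected and 100% = uninfected wells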
Active calls of the source: *.

How did CCN(C(=O)COC(=O)c1cc(S(=O)(=O)N2CCc3ccccc32)ccc1OC)C1CCS(=O)(=O)C1 (centres undefined) do in these assays?
Mtb growth: 4%; Mtb betalactam: -1; Arbovirus anti: 8; RecA splice inh: -3.2

Results for CC(/C=C/c1ccccc1)=N\NC(=S)NC(C)C ?
Mtb growth: -3%; Mtb betalactam: -5; Arbovirus anti: -7; RecA splice inh: 0.9

What do the screens show for `CCOC(=O)Cc1csc(NC(=O)c2cccc(OC)c2)n1`?
Mtb growth: 2%; Mtb betalactam: -6; Arbovirus anti: 7; RecA splice inh: 1.6; YopH PTP inh: 1

What do the screens show for `COc1ccc(C(=O)COC(=O)CCN=C2NS(=O)(=O)c3ccccc32)c(OC)c1`?
Mtb betalactam: 7; RecA splice inh: -2.0

What do the screens show for `COC(=O)c1ccccc1CSc1nsc(/C=C/N(C)C)c1C#N`?
Mtb betalactam: 1; RecA splice inh: 4.8

How did CCn1ncc([N+](=O)[O-])c1C(=O)N1CCCC1 do in these assays?
Mtb growth: -6%; Mtb betalactam: 2; Arbovirus anti: -4; RecA splice inh: 0.6; YopH PTP inh: 27

What do the screens show for `COc1cccc(OC)c1Oc1ccc(C(F)(F)F)cn1`?
Mtb growth: -1%; Mtb betalactam: 6; Arbovirus anti: 14; RecA splice inh: 2.5; YopH PTP inh: 13

What do the screens show for `Cc1cc(C(=O)O)ccc1-c1ccc(/C=C2\NC(=O)N(Cc3ccccc3Cl)C2=O)o1`?
Mtb growth: 4%; Mtb betalactam: -3; Arbovirus anti: 14; RecA splice inh: -21

Results for COc1ccc(Cl)cc1NC(=S)Nc1cccnc1 ?
Mtb growth: -7%; Mtb betalactam: 4; Arbovirus anti: -4; RecA splice inh: -0.4

Results for COC(=O)c1scc(C)c1NC(=O)C1CCCCC1 ?
Mtb growth: -5%; Mtb betalactam: -4; Arbovirus anti: -3; RecA splice inh: -0.8; YopH PTP inh: -22

Results for O=c1c(-c2ccc(F)cc2)[n+]([O-])c2ccccc2n1OCc1ccccn1 ?
Mtb growth: 11%; Mtb betalactam: -3; Arbovirus anti: 14; RecA splice inh: -0.6

What do the screens show for `CCOCCOC(=O)C1=C(C)N(C)C(=O)NC1c1ccccc1F` (centres undefined)?
Mtb growth: -5%; Mtb betalactam: -2; Arbovirus anti: 2; RecA splice inh: 0.8; YopH PTP inh: -23

What do the screens show for `Cc1ccc(S(=O)(=O)N2CCN(C(=O)CSc3nc4ccccc4o3)C2)cc1`?
Mtb growth: -4%; Mtb betalactam: -8; Arbovirus anti: 5; RecA splice inh: 4.1; YopH PTP inh: -1

How did CCc1c(C)nc(SCC(=O)Nc2ccc(Br)cc2)[nH]c1=O do in these assays?
Mtb growth: 1%; Mtb betalactam: 3; Arbovirus anti: 2; RecA splice inh: 0.6; YopH PTP inh: -44; Arbovirus anti repeat: 1

How did C=CCn1c(COc2ccc(CC)cc2)nnc1SC/C(O)=C(\C#N)c1nc2ccccc2[nH]1 do in these assays?
Mtb growth: 65%; Mtb betalactam: 4; Arbovirus anti: 10; RecA splice inh: -1.2; YopH PTP inh: -14; Arbovirus anti repeat: -1

What do the screens show for `NS(=O)(=O)c1ccc(NC(=O)/C(=C/c2ccncc2)NC(=O)c2ccccc2)cc1`?
Mtb betalactam: 3; RecA splice inh: 0.5

What do the screens show for `O=C(CC1c2ccccc2Oc2ccccc21)Nc1ccccc1C(F)(F)F`?
Mtb growth: 8%; Mtb betalactam: -5; Arbovirus anti: 7; RecA splice inh: -5.1; YopH PTP inh: -11

How did Cc1cc(C)nc(SC(C)C(=O)Nc2ccc(S(N)(=O)=O)cc2)n1 (centres undefined) do in these assays?
Mtb growth: 0%; Mtb betalactam: -7; Arbovirus anti: 8; RecA splice inh: -0.1; YopH PTP inh: 37

Results for Cc1cc(NC(=O)c2cc(-c3ccccc3C)nc3ccccc23)no1 ?
Mtb growth: 5%; Mtb betalactam: 1; Arbovirus anti: 1; RecA splice inh: 2.3; YopH PTP inh: -27

How did COc1cc(C2C(C#N)=C(N)N(N(C)C)C3=C2C(=O)CC(C)(C)C3)ccc1O (centres undefined) do in these assays?
Mtb betalactam: 1; RecA splice inh: -3.2

The final three entries of the section above open the next one.
How did Cc1cc(C)nc(SC(C)C(=O)Nc2ccc(S(N)(=O)=O)cc2)n1 (centres undefined) do in these assays?
Mtb growth: 0%; Mtb betalactam: -7; Arbovirus anti: 8; RecA splice inh: -0.1; YopH PTP inh: 37

Results for Cc1cc(NC(=O)c2cc(-c3ccccc3C)nc3ccccc23)no1 ?
Mtb growth: 5%; Mtb betalactam: 1; Arbovirus anti: 1; RecA splice inh: 2.3; YopH PTP inh: -27

How did COc1cc(C2C(C#N)=C(N)N(N(C)C)C3=C2C(=O)CC(C)(C)C3)ccc1O (centres undefined) do in these assays?
Mtb betalactam: 1; RecA splice inh: -3.2

How did CCOC(=O)/C(=N\Nc1cc(Cl)ccc1Cl)N1CCN(CC)CC1 do in these assays?
Mtb growth: 1%; Mtb betalactam: 1; Arbovirus anti: -32; RecA splice inh: 0.4; YopH PTP inh: -15

What do the screens show for `CN(C(=O)COC(=O)CCc1c[nH]c2ccccc12)C(c1ccccc1)c1ccccc1`?
Mtb growth: inconclusive; Mtb betalactam: 98; Arbovirus anti: 1; RecA splice inh: 9.3; YopH PTP inh: -32

How did O=C(CSc1nnc(NC(=O)C2CC2)s1)Nc1ccccc1Cl do in these assays?
Mtb betalactam: -1; RecA splice inh: -1.5

Results for COc1cccc(C(=O)NCC(c2ccco2)N2CCOCC2)c1 (centres undefined) ?
Mtb betalactam: -6; RecA splice inh: 4.7

Results for Nc1nonc1C(=O)N/N=C/c1cc2c(cc1Br)OCO2 ?
Mtb betalactam: 2; RecA splice inh: -2.0

What do the screens show for `O=C1OC(c2ccccc2)=C/C1=C/N1CCCCC1`?
Mtb growth: 4%; Mtb betalactam: 1; Arbovirus anti: 6; RecA splice inh: -2.3; YopH PTP inh: -18

Results for CC(=O)Nc1c(Cl)cnn(-c2ccccc2)c1=O ?
Mtb betalactam: -7; RecA splice inh: 1.3

How did CC12CCC(=O)N1C(C(=O)NCCc1ccc(F)cc1)CS2 (centres undefined) do in these assays?
Mtb betalactam: -6; RecA splice inh: 6.3

How did COc1ccccc1CNC(=O)C(C)Sc1ccc(C)cc1 (centres undefined) do in these assays?
Mtb growth: -3%; Mtb betalactam: -12; Arbovirus anti: -2; RecA splice inh: -3.8

How did Cc1nn(C)c(C(=O)NNC(=S)NCC(C)C)c1Cl do in these assays?
Mtb growth: -3%; Mtb betalactam: 2; Arbovirus anti: 6; RecA splice inh: -1.2; YopH PTP inh: -19

Results for CSc1ccc(/C=C(/Sc2nnc(-c3ccccc3)o2)C(=O)O)cc1 ?
Mtb growth: -7%; Mtb betalactam: 7; Arbovirus anti: 5; RecA splice inh: -3.1

What do the screens show for `Cc1ncc([N+](=O)[O-])n1CC(=O)Nc1ccc(OC(F)(F)Cl)cc1`?
Mtb betalactam: 5; RecA splice inh: -1.8

Results for Cc1c(C(=O)c2ccccc2)c2ccccc2n1C ?
Mtb growth: -5%; Mtb betalactam: 5; RecA splice inh: 1.4

Results for COc1ccccc1OCC(=O)NCc1n[nH]c(=O)c2ccccc12 ?
Mtb betalactam: 0; RecA splice inh: -0.8

How did COc1cccc(C(=O)NCC(=O)N/N=C/c2cccs2)c1 do in these assays?
Mtb growth: -7%; Mtb betalactam: 0; Arbovirus anti: 2; RecA splice inh: 4.3; YopH PTP inh: -22

What do the screens show for `FC(F)=C(F)CCSc1ncn[nH]1`?
Mtb growth: 3%; Mtb betalactam: 3; Arbovirus anti: 4; RecA splice inh: -4.6

How did O=[N+]([O-])c1cccc(/C=N/NC2=NCCCCC2)c1 do in these assays?
Mtb growth: 1%; Mtb betalactam: 2; Arbovirus anti: -12; RecA splice inh: -1.8; YopH PTP inh: -17

Results for Cc1ccccc1NC(=O)NC1(C(=O)N2CCN(C)CC2)CCCCC1 ?
Mtb betalactam: -1; RecA splice inh: -0.5

What do the screens show for `CCOc1cc(/C=C\c2[nH]c(=O)[nH]c(=O)c2[N+](=O)[O-])ccc1OC(C)CC` (centres undefined)?
Mtb growth: 2%; Mtb betalactam: 20; Arbovirus anti: 23; RecA splice inh: 2.8; YopH PTP inh: -14

How did Cc1cc(=O)oc2cc(OCC(=O)NCc3cccnc3)ccc12 do in these assays?
Mtb growth: -8%; Mtb betalactam: -20; Arbovirus anti: 5; YopH PTP inh: -32

Results for Cc1cc(Cl)nc(N)n1 ?
Mtb growth: -1%; Mtb betalactam: 15; Arbovirus anti: 12; RecA splice inh: 4.0; YopH PTP inh: -4

How did CCn1c2ccccc2c2cc(NC(=O)c3coc(=O)c(Br)c3)ccc21 do in these assays?
Mtb growth: -10%; Mtb betalactam: 4; RecA splice inh: -4.3

What do the screens show for `C/C(=C/C(=O)NCc1ccccc1)C(=O)O`?
Mtb growth: -3%; Mtb betalactam: 40; Arbovirus anti: 7; RecA splice inh: -1.7; YopH PTP inh: -28

How did C[n+]1ccc(/C=N/Nc2nc(Cl)c(C#N)c(Cl)c2Cl)cc1 do in these assays?
Mtb growth: 0%; Mtb betalactam: 7; Arbovirus anti: 3; RecA splice inh: 9.1

How did Cc1cc(N=CC2=C(O)CC(C)(C)CC2=O)no1 do in these assays?
Mtb growth: 4%; Mtb betalactam: 0; Arbovirus anti: 5; YopH PTP inh: -46; Arbovirus anti repeat: 1

What do the screens show for `Cc1ccc2sc(-c3ccc(NC(=O)c4cc(-n5cnnc5)ccc4Cl)cc3)nc2c1`?
Mtb growth: 1%; Mtb betalactam: -1; Arbovirus anti: -10; RecA splice inh: 3.5; YopH PTP inh: -38

Results for CC(NC(=O)CCn1ccc2cc(S(=O)(=O)N3CCCC3)ccc21)c1ccccc1 (centres undefined) ?
Mtb betalactam: 1; RecA splice inh: 0.8

Results for Cc1cc(Nc2cccc(F)c2)n2ncnc2n1 ?
Mtb betalactam: -1; Arbovirus anti: -5; RecA splice inh: 1.2; YopH PTP inh: -26; Arbovirus anti repeat: 5

Results for C=CCn1c(CSCc2ccc(Cl)cc2)nnc1SCC(=O)NCc1ccccc1 ?
Mtb growth: -11%; Mtb betalactam: -2; Arbovirus anti: 16; RecA splice inh: 3.3; YopH PTP inh: 8

Results for Cc1ccc(CCNS(=O)(=O)c2cc3c(cc2C)n(C)c(=O)c(=O)n3C)cc1 ?
Mtb betalactam: -3; RecA splice inh: -0.1

Results for Cc1ccc([N+](=O)[O-])cc1N=Cc1ccc(Br)s1 ?
Mtb growth: 0%; Mtb betalactam: 1; Arbovirus anti: -2; YopH PTP inh: 6

How did CC1CCN(CCCNC(=O)c2ccc(CS(=O)(=O)Cc3ccccc3F)o2)CC1 do in these assays?
Mtb growth: -13%; Arbovirus anti: 11; RecA splice inh: -2.8; YopH PTP inh: 3

How did Cc1cc(C(F)(F)F)nn1Cc1ccc(C(=O)NCc2ccco2)o1 do in these assays?
Mtb growth: -1%; Mtb betalactam: 2; Arbovirus anti: 15; RecA splice inh: 3.4; YopH PTP inh: -8

Results for COc1ccc(/C=C2\CCCC3C2=NN(C(=O)c2scnc2C)C3c2ccc(OC)c(OC)c2)cc1OC (centres undefined) ?
Mtb growth: -10%; Mtb betalactam: 1; Arbovirus anti: -5; RecA splice inh: -1.7; YopH PTP inh: -11

What do the screens show for `COc1ccccc1NC(=O)Nc1sccc1-c1nc2ccccc2s1`?
Mtb growth: 16%; Mtb betalactam: 25; RecA splice inh: 12

How did COc1ccccc1C1(CC(=O)O)CCOC(C(C)C)C1 (centres undefined) do in these assays?
Mtb growth: 1%; Mtb betalactam: 1; Arbovirus anti: 5; RecA splice inh: 1.5; YopH PTP inh: -31

Results for COc1ccc(C)cc1S(=O)(=O)N(C)CC(=O)N1CCC(C)CC1 ?
Mtb growth: -6%; Mtb betalactam: -1; Arbovirus anti: 2; RecA splice inh: 0.9; YopH PTP inh: 2

What do the screens show for `COc1cccc(NC(=O)Nc2ccc3c(c2)nc(C)n3C)c1`?
Mtb growth: -3%; Mtb betalactam: -5; Arbovirus anti: 2; RecA splice inh: 5.8

How did CCOc1cccc(C2C(C#N)=C(N)Oc3cc(C)[nH]c(=O)c32)c1OCC (centres undefined) do in these assays?
Mtb growth: -3%; Mtb betalactam: -11; RecA splice inh: 0.5

What do the screens show for `COC(=O)c1ccc(NS(=O)(=O)c2ccc(SC)cc2)cc1`?
Mtb growth: -7%; Mtb betalactam: 3; Arbovirus anti: 7; RecA splice inh: -1.3; YopH PTP inh: -5

Results for COc1ccc(S(=O)(=O)N(C)CC(=O)N2CCCC2)cc1Cl ?
Mtb growth: -8%; Mtb betalactam: -2; Arbovirus anti: -1; RecA splice inh: -2.9

Results for COCCOCC(O)CN1CCN(c2ccc(C)cc2)CC1 (centres undefined) ?
Mtb growth: 3%; Mtb betalactam: -6; Arbovirus anti: 1; RecA splice inh: -0.8; YopH PTP inh: -35

This is a subset, so the mix of outcomes need not match the whole.
